Bioassay records deposited in PubChem BioAssay by National Center for Advancing Translational Sciences (NCATS).
Six1-Eya2 inh = blocks human Six1 binding to Eya2 | Q15475+O00167 | AlphaScreen GST-Six1/His-Eya2 binding, biochemical; active compounds read low; control for the full effect not named in the record | activity change, % (test concentration not listed) | 360,000 tested, 0.56% active | AID 651725; in the data active = activity change below about -65%; inconclusive = about -30% to -65%; inactive = above about -30%; also: % is scaled to controls: 0 for no effect and ±100 for the full control effect
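Compounds are tested against tagged Six1 and Eya2 proteins bridged by glutathione donor and nickel acceptor beads; after a one-hour incubation at 37 °C without light, AlphaScreen emission is recorded.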
D2 potentiator = potentiates the human D2 dopamine receptor allosterically; P14416; DiscoveRx D2 beta-arrestin cells, luminescence, 90 min; 100% = 57 uM dopamine signal; potentiation, % (concentration not given with the values); 360,000 tested, 0.23% active; AID 624464; active = potentiation of 50% or more; inconclusive = 30% to 50%; inactive = 30% or less;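 also: compound concentration not given in the record; tested on top of an EC20 dose of dopamine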
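D2 cells co-treated with compound plus 50 nM dopamine (EC20) for 90 min at 37 deg C to detect potentiation. Beta-arrestin recruitment was read as enzyme-fragment luminescence after 1 h at ambient temperature. Full response was set by 57 uM dopamine.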
TRPV1 potentiator = enhances activation of the human vanilloid receptor TRPV1 | Q8NER1 | TRPV1-expressing cells, Fluo-8 calcium influx, capsaicin EC20 potentiation; host cell line not named in the record; control for the full effect not named in the record | potentiation, % at 8.33 µM | 320,000 tested, 0.02% active | AID 540277; active means potentiation above 80%; inconclusive means 30% to 80%; inactive means below 30%; also: 0% is about no effect
Target sequence (Q8NER1 whole entry, looked up): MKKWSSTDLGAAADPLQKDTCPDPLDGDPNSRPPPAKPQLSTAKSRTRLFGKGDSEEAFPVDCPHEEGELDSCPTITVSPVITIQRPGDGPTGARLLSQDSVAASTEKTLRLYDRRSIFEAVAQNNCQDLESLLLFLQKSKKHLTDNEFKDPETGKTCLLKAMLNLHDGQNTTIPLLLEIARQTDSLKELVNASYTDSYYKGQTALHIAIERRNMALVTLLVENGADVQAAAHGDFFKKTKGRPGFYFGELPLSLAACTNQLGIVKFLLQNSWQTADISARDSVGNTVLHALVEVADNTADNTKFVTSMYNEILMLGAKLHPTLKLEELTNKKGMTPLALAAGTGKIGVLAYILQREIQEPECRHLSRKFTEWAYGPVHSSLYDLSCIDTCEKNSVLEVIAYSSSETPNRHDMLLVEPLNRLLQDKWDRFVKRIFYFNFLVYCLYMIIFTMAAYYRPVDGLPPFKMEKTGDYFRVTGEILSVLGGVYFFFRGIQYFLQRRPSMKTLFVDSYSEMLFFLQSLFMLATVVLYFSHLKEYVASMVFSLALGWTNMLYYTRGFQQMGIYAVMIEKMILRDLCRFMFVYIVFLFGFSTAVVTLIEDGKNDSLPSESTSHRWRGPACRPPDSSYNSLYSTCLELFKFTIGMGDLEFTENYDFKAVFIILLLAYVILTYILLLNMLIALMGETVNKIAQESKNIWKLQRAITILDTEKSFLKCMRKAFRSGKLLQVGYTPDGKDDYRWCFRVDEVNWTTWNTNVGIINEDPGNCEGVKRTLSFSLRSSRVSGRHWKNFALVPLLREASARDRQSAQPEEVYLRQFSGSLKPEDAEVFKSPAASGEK
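Fluo-8 calcium influx in TRPV1-expressing cells, kinetic read (ex 480/em 520 nm). Compound added and read 3 min for agonist activity, followed by capsaicin at EC20 final and 2 min further read for enhancement.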
Sfp inh = inhibitors of Bacillus subtilis Sfp phosphopantetheinyl transferase; Q9F4F7; Biochemical Sfp PPTase activity, qHTS; Potency, µM, for inactives: max response, negative = inhibition, usual class: inhibitors; 310,000 tested, 3.5% active; AID 1490; active = well fitted inhibition curve with a large enough effect; inconclusive = small, poorly fitted or top-dose-only effect, or another doubt; inactive = no such curve, though single readings can be large or run the other way;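 also: the enzyme is Sfp with the accession as filed and its product quenches rhodamine fluorescence; potency is read from the fitted curve at half-maximal effect; 0% = enzyme reaction without inhibitor and -100% = no enzyme wells; top concentration of the series not given in the record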
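Fluorescence-quenching assay: 15 nM Sfp-PPTase preincubated 15 min at room temperature with compound, then 5 uM rhodamine-CoA and 12.5 uM BHQ-2-labelled YbbR peptide added. Fluorescence (ex 525/em 598 nm) read at start and after 30 min; difference gives rate.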
D2 agonist = activates the human D2 dopamine receptor; AID 624465; activation, % (no concentration beside the values); DiscoveRx PathHunter D2 beta-arrestin, luminescence, 90 min; 100% = 57 uM dopamine signal; 360,000 tested, 0.084% active; in the data active = activation above about 40%; inconclusive = about 15% to 40%; inactive = below about 15%; also: compound concentration not given in the record; the text of the record calls up to 30% inactive
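Agonist mode: compounds alone added to overnight-plated D2 PathHunter cells for 90 min at 37 C, with 57 uM final dopamine (EC100) defining full response. Beta-arrestin recruitment detected by chemiluminescent reagent, read after 1 h at ambient temperature.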
CtBP-E1A blk = CtBP/E1A binding inhibition | AID 651724 | AlphaScreen GST-E1A/His-CtBP binding, 1536-well; active compounds read low; control for the full effect not named in the record | activity change, % (concentration not given with the values) | 340,000 tested, 0.49% active; in the data active means activity change below about -65%; inconclusive means about -30% to -65%; inactive means above about -30%; also: % is scaled to controls: 0 for no effect and ±100 for the full control effect
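Protein mix (5X: 125 nM each GST-E1A, His-CtBP) was incubated with pinned compound 2 h at 37 deg C in dark, in 50 mM Tris pH 8.0 buffer with 300 mM NaCl. Glutathione donor and nickel acceptor beads followed; AlphaScreen signal read after 1 h.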
PINK1 modulator = modulators of PINK1 expression | Potency, µM (series often up to 76.6 µM), without a hit: at the highest dose activation (PINK1 increase), usual class: activators | 410,000 tested, 0.2% active | PINK1 immunofluorescence, high-content cytometry, 24 h; active = well fitted activation curve with a large enough effect; inconclusive = small, poorly fitted or top-dose-only effect; inactive = flat fitted curve, though single readings scatter; cell line not stated here;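 also: potency is read from the fitted curve at half-maximal effect; % of control where 0% means no effect; nearly all actives have a fitted effect of over 65% in size; a mitochondrial uncoupler was the plate control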
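Fluorescence from anti-PINK1 antibody, together with nuclear and cell stains, was scanned on a laser-scanning cytometer. Before staining, stable-line cells were incubated 24 hours with compounds at 5 concentrations; primary antibody 12 h at 10 degrees C.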
Active calls of the source: *; ? = inconclusive; . = no result given; [ ] = dose if it differs, or a comment.

SMILES	Six1-Eya2 inh	D2 potentiator	TRPV1 potentiator	Sfp inh	D2 agonist	CtBP-E1A blk	PINK1 modulator
Cc1ccc(N/N=C2\CCS(=O)(=O)c3sccc32)cc1	-10	-22	-10	-45%	-7.2	-12	-1.2%
Cc1oc(-c2ccc(Cl)cc2)nc1CN1CCC(C(=O)NCCCN2CCCC2=O)CC1	6	-6	30	14%	-5.3	0	-0.6%
CN(C)CCCNS(=O)(=O)c1cc(Cl)ccc1Cl	1	-10	-14	15%	-2.3	6	6.5%[38.3 µM]
O=C(NCCCN1CCCC1)C1CCN(C(=O)c2cc3sccc3n2Cc2ccc(F)cc2)CC1	-2	-12	11	-8%	-2.2	0	-7.2%[38.3 µM]
Cc1cccc(C(=O)OCC(=O)c2c(N)n(CC(C)C)c(=O)n(C)c2=O)c1[N+](=O)[O-]	-10	8	-1	.	1.0	1	-2.4%
Cc1ccc(F)cc1NC(=O)c1ccc(NS(=O)(=O)c2ccc(Br)s2)cc1	8	3	-1	5%	1.7	-11	3.5%
O=C(NC1CCN(Cc2ccccc2)CC1)c1ccccc1F	1	-29	6	16%	2.3	-6	-0.9%[38.3 µM]
CN(C)S(=O)(=O)N(CCN1CCOCC1)Cc1ccccc1F	6	7	-5	8%	-0.7	-7	-1.0%
Nc1cccc2c1C(=O)N(CCOc1ccc(F)cc1)C2=O	5	-6	-7	8%	-0.7	36	10%
C=C(C)Cn1c(=O)c2c(nc3n2CCCN3Cc2ccccc2)n(C)c1=O	-3	-9	14	24%	-7.2	-16	-0.6%
O=C(Cn1nc(-c2ccccc2)nc1-c1ccccc1)N1CCOCC1	1	-6	-18	8%	-2.9	2	0.3%
NNC(=O)c1cc(S(=O)(=O)N2CCOCC2)c[nH]1	0	-2	2	.	-4.9	-6	-1.2%
O=C(C(Cc1ccccc1)N1C(=O)c2ccccc2C1=O)N1c2ccccc2CCc2ccccc21 (stereo unspecified)	-3	-12	-1	-7%	-5.2	.	-1.8%
CC(=O)/C(=N\Nc1cccc(Cl)c1)Sc1nnc(-c2ccccc2)n1-c1ccccc1	-3	-8	-5	-14%	-1.2	6	6.3%
CS(=O)(=O)N1CCC(C(=O)Nc2ccccc2Br)CC1	-1	17	-2	12%	1.1	.	-0.8%
NC(=O)C1CCN(C(=O)c2cc3ccccn3n2)CC1	2	-4	.	4%	-5.4	5	0.5%
CCOC(=O)COc1cccc2c(=O)n(CC(=O)NCc3ccccc3)ccc12	5	-16	4	-10%	-3.0	.	6.4%
Cc1noc(NS(=O)(=O)c2ccc(NC(=O)CC(C)C)cc2)c1C	-1	-5	-7	2%	0.1	-1	0.3%
COc1ccc(-c2ccc(S(=O)(=O)N3CCCC3)cc2)cc1	0	-2	-6	3%	2.3	7	0.0%
Cn1c(=O)cc(Nc2ccccc2)c2c(=O)n(-c3ccccc3)c(=O)n(-c3ccccc3)c21	-18	-1	-7	0%	2.1	-8	-1.2%
COc1ccc2[nH]c(C)c(C(=O)CN3CCN(C(=O)c4ccco4)CC3)c2c1	-1	5	-7	-7%	-1.0	1	-1.3%
Cc1ccc(S(=O)(=O)N2CCCCC2)cc1NC(=O)COC(=O)Cc1c(F)cccc1Cl	5	8	4	-2%	1.0	-7	2.2%
O=C(O)CN1C(=O)c2ccc(Oc3cccc4c3C(=O)N(CC(=O)O)C4=O)cc2C1=O	-2	0	-4	8%	0.2	-2	4.7%[38.3 µM]
Cc1nn(C)c(Oc2cccc(C(F)(F)F)c2)c1C=O	4	-1	2	10%	-0.4	6	2.3%
Cc1sc2nc(-c3ccc(Br)cc3)oc(=O)c2c1C	2	-7	-19	19%	-3.9	-1	-0.2%

14 entries from above in another layout:
Below each compound – Six1-Eya2 inh	D2 potentiator	TRPV1 potentiator	Sfp inh	D2 agonist	CtBP-E1A blk	PINK1 modulator
NNC(=O)c1cc(S(=O)(=O)N2CCOCC2)c[nH]1
 : 0	-2	2	.	-4.9	-6	-1.2%
O=C(C(Cc1ccccc1)N1C(=O)c2ccccc2C1=O)N1c2ccccc2CCc2ccccc21 (stereo unspecified)
 : -3	-12	-1	-7%	-5.2	.	-1.8%
CC(=O)/C(=N\Nc1cccc(Cl)c1)Sc1nnc(-c2ccccc2)n1-c1ccccc1
 : -3	-8	-5	-14%	-1.2	6	6.3%
CS(=O)(=O)N1CCC(C(=O)Nc2ccccc2Br)CC1
 : -1	17	-2	12%	1.1	.	-0.8%
NC(=O)C1CCN(C(=O)c2cc3ccccn3n2)CC1
 : 2	-4	.	4%	-5.4	5	0.5%
CCOC(=O)COc1cccc2c(=O)n(CC(=O)NCc3ccccc3)ccc12
 : 5	-16	4	-10%	-3.0	.	6.4%
Cc1noc(NS(=O)(=O)c2ccc(NC(=O)CC(C)C)cc2)c1C
 : -1	-5	-7	2%	0.1	-1	0.3%
COc1ccc(-c2ccc(S(=O)(=O)N3CCCC3)cc2)cc1
 : 0	-2	-6	3%	2.3	7	0.0%
Cn1c(=O)cc(Nc2ccccc2)c2c(=O)n(-c3ccccc3)c(=O)n(-c3ccccc3)c21
 : -18	-1	-7	0%	2.1	-8	-1.2%
COc1ccc2[nH]c(C)c(C(=O)CN3CCN(C(=O)c4ccco4)CC3)c2c1
 : -1	5	-7	-7%	-1.0	1	-1.3%
Cc1ccc(S(=O)(=O)N2CCCCC2)cc1NC(=O)COC(=O)Cc1c(F)cccc1Cl
 : 5	8	4	-2%	1.0	-7	2.2%
O=C(O)CN1C(=O)c2ccc(Oc3cccc4c3C(=O)N(CC(=O)O)C4=O)cc2C1=O
 : -2	0	-4	8%	0.2	-2	4.7%[38.3 µM]
Cc1nn(C)c(Oc2cccc(C(F)(F)F)c2)c1C=O
 : 4	-1	2	10%	-0.4	6	2.3%
Cc1sc2nc(-c3ccc(Br)cc3)oc(=O)c2c1C
 : 2	-7	-19	19%	-3.9	-1	-0.2%

Additional records follow:
SMILES	Six1-Eya2 inh	D2 potentiator	TRPV1 potentiator	Sfp inh	D2 agonist	CtBP-E1A blk	PINK1 modulator
CN1C(=O)c2ccc(C(=O)Nc3ccc(Br)cn3)cc2C1=O	1	3	29	5%	3.8	2	0.8%
CS(=O)(=O)c1ccccc1-c1nnc(NC(=O)COc2ccc(Cl)cc2)o1	-28	-6	-11	.	0.8	?	-2.3%
COc1ccc(C(=O)Cc2cc(OC)c(OC)cc2C(=O)c2ccccc2F)cc1OC	-3	-22	5	?	-7.1	.	-0.9%
Oc1ccc(C[C@H]2CNCCN2CCc2cccc3ccccc23)cc1	-3	-28	17	.	-3.5	.	-0.1%
O=CN1CCCN(Cc2nc(Cc3ccccc3F)no2)CC1	1	-6	16	6%	-0.6	.	-0.6%
CCCCC(=O)N(C)c1c(C)nc2ccc(C(=O)N3CCN(C(C)=O)CC3)cn12	0	5	.	.	-0.7	3	0.4%
COCCN(CC1CCCN(C2Cc3ccccc3C2)C1)C(=O)c1ccc(C(C)=O)cc1 (stereo unspecified)	3	-16	21	11%	-4.8	-27	1.3%
Cc1ccc(N2C(=O)CSC2c2c(F)cccc2Cl)cc1 (stereo unspecified)	-2	-12	-1	10%	-4.1	-2	-1.9%
COc1cc2c(cc1OC)CN(C(=O)CSc1nc3[nH]ncc3c(=O)n1-c1ccccc1)CC2	3	0	-3	12%	-3.7	-21	0.7%
COc1ccc(NC(=O)c2cc3ccccc3cc2OC)cc1OC	-13	-8	7	-4%	2.8	.	0.3%
CCCNC(=O)c1ccc(C2SCC(=O)N2Cc2ccccc2)cc1 (stereo unspecified)	0	7	-16	-22%	0.4	0	6.9%
COc1cccc(CN2CCN(c3ncccn3)CC2)c1	-2	26	-13	-24%	55*	5	-0.7%
COc1ccccc1-c1coc2c(CN3CCCCC3C)c(O)ccc2c1=O (stereo unspecified)	0	-5	-1	20%	-2.7	12	0.9%
O=C1CSC(c2cn(-c3ccccc3)nc2-c2cc3ccccc3oc2=O)N1Cc1cccnc1 (stereo unspecified)	0	-22	-19	9%	1.2	3	.
CCCC(=O)Nc1ccc(Cl)c(NC(=O)c2ccco2)c1	1	-1	-7	5%	2.8	2	-0.4%[38.3 µM]
FC(F)(F)c1cccc(-c2cc3nc(NCCCn4ccnc4)ccn3n2)c1	-4	18	.	.	11	0	0.3%
CCC(C)(C)C(=O)O	9	-4	-3	.	-3.1	6	3.9%
Cc1cc(C)c(C)c(OCCN2CC(C)OC(C)C2)c1 (stereo unspecified)	-5	-6	0	45µM*	-1.0	8	4.8%
O=C(NCc1ccc(Cl)cc1)c1ccc(-n2cccn2)nc1	4	-10	?	13%	0.3	-1	0.7%
CCCCC(=O)Nc1nnc(SCC(=O)N2CCN(c3ccccc3OC)CC2)s1	1	6	-6	8%	-1.2	4	3.0%
COc1c(Cl)cc(C(=O)Nc2ccccc2-c2ccccc2)cc1Cl	26	-11	-13	-6%	-3.2	9	6.3%
Cc1nc2sc3c(c2c2nnc(SCC(=O)NCc4ccco4)n12)CCCC3	-26	5	-6	?	-2.1	-20	-0.4%
Cc1ccc(S(=O)(=O)Nc2ccc3c(c2)C(=O)NC3=O)cc1[N+](=O)[O-]	0	-16	5	18%	-6.6	-1	1.1%
